# Vaccinia inh – blocks a specific stage of Vaccinia orthopoxvirus infection, primary screen, cell-based, single point; Vaccinia-infected cells, mCherry/Venus stage reporter fluorescence; stronger effect = lower value; some inactives read as strong as hits; activity change (mCherry), % (concentration not given with the values); hit rate 0.01% among 89,000;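 active = mCherry past -33% and 40 or more points under the early reporter, replicates agreeing; inconclusive = past -33% without that gap or agreement; tested in A549 cells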;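 also: scaled between vehicle wells and reference inhibitor wells; 23 nL library stock went into each well; one replicate is shown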
# Vaccinia inh Venus – recorded beside Vaccinia inh, whose call it bears; activity change (Venus), %; measured here: Venus reporter, other viral stage;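 negative = less Venus signal; first of two replicates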
# The depositor's hits bear a star; ? = inconclusive; · = not tested or not shown; & = joins results of further samples. Some of the compounds tested (hit frequency here may not be typical).
No. | compound | Vaccinia inh | Vaccinia inh Venus
1 | Cc1ccc(-c2ccc([C@@H]3[C@H]4CN(S(=O)(=O)c5cccc(C)c5)CCCCN4[C@H]3CO)cc2)cc1 | 4 | -1
2 | CN(C)CC(=O)N1CC2(C1)[C@@H](c1ccccc1)[C@H](CO)N2C(=O)C1CC1 | 4 | -1
3 | CC(C)CC#Cc1cnc2c(c1)C(=O)N([C@H](C)CO)C[C@H](C)[C@@H](CN(C)S(C)(=O)=O)O2 | 13 | 5
4 | COc1ccc(CN(C)C[C@H]2Oc3ccc(NC(=O)c4ccncc4)cc3CC(=O)N([C@H](C)CO)C[C@@H]2C)cc1 | 24 | 20
5 | C[C@H](NC(=O)N(C)C[C@H]1OCc2ccccc2-c2c(n(C)c3ccccc23)C(=O)N([C@@H](C)CO)C[C@H]1C)c1ccccc1 | ? | ·
6 | C[C@@H]1CN([C@@H](C)CO)S(=O)(=O)c2ccc(-c3ccc(C#N)cc3)cc2O[C@@H]1CN(C)Cc1cccc(F)c1 | ? | ·
7 | COc1cccc(CN2CC3(CCN(C)CC3)c3c(n(C)c4cc(OC)ccc34)[C@@H]2CO)c1 | -16 | -10
8 | COc1ccc(S(=O)(=O)N(C)C[C@H]2Oc3c(NC(=O)c4cnccn4)cccc3C(=O)N([C@@H](C)CO)C[C@@H]2C)cc1 | 0 | -5
9 | C[C@@H]1CN([C@@H](C)CO)C(=O)c2cccc(NC(=O)c3ccncc3)c2O[C@@H]1CN(C)Cc1ccc2c(c1)OCO2 | 6 | 3
10 | Fc1ccc(CN2[C@@H]3CNC[C@H]2C3c2ccc(-c3ccncc3)cc2)cc1 (some centres undefined) | ? | -1
11 | CNC[C@H]1OCCCC[C@@H](C)Oc2ccc(NC(=O)CCCN(C)C)cc2C(=O)N([C@H](C)CO)C[C@@H]1C | 15 | 9
12 | CCS(=O)(=O)Nc1ccc2c(c1)C(=O)N(C)C[C@H](OC)[C@@H](C)CN(C(C)=O)[C@@H](C)CO2 | 2 | -10
13 | CO[C@@H]1CN(C)C(=O)c2ccc(NC(=O)NC(C)C)cc2OC[C@@H](C)N(Cc2ccccn2)C[C@@H]1C | 0 | 2
14 | CO[C@@H]1CN(C)C(=O)c2ccc(NS(=O)(=O)c3ccccc3Cl)cc2OC[C@@H](C)NC[C@@H]1C | 5 | -3
15 | CC(=O)Nc1ccc2c(c1)C(=O)N(C)[C@@H]1CC[C@@H](CC(=O)NCc3ccc(Cl)cc3)O[C@H]1CO2 | 10 | 14
16 | CC(C)NC(=O)N(C)C[C@H]1OCCCC[C@@H](C)Oc2ccc(NC(=O)Nc3ccccc3)cc2C(=O)N([C@@H](C)CO)C[C@H]1C | 9 | -3
17 | CO[C@H]1CN(C)C(=O)c2cc(NC(=O)c3ccc(F)cc3)ccc2OC[C@@H](C)N(C(=O)c2ccc(F)cc2)C[C@@H]1C | 8 | 7
18 | C[C@@H]1CN([C@H](C)CO)C(=O)c2cc(NC(=O)CCN3CCOCC3)ccc2O[C@@H]1CN(C)Cc1ccc(C(=O)O)cc1 | -6 | -1
19 | C[C@@H]1CN([C@@H](C)CO)C(=O)Cc2cc(NC(=O)Cn3cnnn3)ccc2O[C@H]1CN(C)C(=O)Nc1ccc(C(F)(F)F)cc1 | -2 | 0
20 | COc1ccc(NC(=O)Nc2ccc3c(c2)C(=O)N([C@@H](C)CO)C[C@@H](C)[C@@H](CN(C)S(=O)(=O)c2ccc(C)cc2)O3)cc1 | -18 | -21
21 | CCNC(=O)C[C@@H]1CC[C@H]2[C@@H](COc3ccc(NC(=O)Nc4ccccc4C)cc3C(=O)N2C)O1 | 12 | 10
22 | CN(C)CC(=O)N1[C@@H](C#N)[C@H](c2ccc(C#CC3CCCCC3)cc2)[C@@H]1CO | -15 | -8
23 | C[C@H]1CN([C@@H](C)CO)C(=O)c2cc(NC(=O)C3CCCCC3)ccc2O[C@H]1CN(C)Cc1ccc(Cl)c(Cl)c1 | 0 | 0
24 | CC(=O)N(C)C[C@@H]1Oc2cc(Br)ccc2S(=O)(=O)N([C@H](C)CO)C[C@H]1C | 10 | 7
25 | C[C@@H]1CN([C@@H](C)CO)C(=O)c2cc(Br)cnc2O[C@H]1CN(C)Cc1cccnc1 | 16 | 17

# 2 entries from above, with two lines to a compound.
# Each structure is followed by: Vaccinia inh | Vaccinia inh Venus
(14) CO[C@@H]1CN(C)C(=O)c2ccc(NS(=O)(=O)c3ccccc3Cl)cc2OC[C@@H](C)NC[C@@H]1C
 : 5 | -3
(15) CC(=O)Nc1ccc2c(c1)C(=O)N(C)[C@@H]1CC[C@@H](CC(=O)NCc3ccc(Cl)cc3)O[C@H]1CO2
 : 10 | 14

# Next structures:
No. | compound | Vaccinia inh | Vaccinia inh Venus
26 | CC(C)NC(=O)N[C@H]1C=C[C@H](CC(=O)NC2Cc3ccccc3C2)O[C@H]1CO | 8 | 8
27 | O=C([C@@H]1[C@@H](CO)[C@@H]2Cn3c(ccc(-c4ccncc4)c3=O)[C@H]1N2Cc1cccnc1)N1CCOCC1 | 8 | 9
28 | COc1ccccc1C#Cc1ccc2c(c1)[C@@H]1[C@@H](CCN1C(=O)Cc1ccccc1)[C@H](CO)N2 | -11 | -7
29 | CCCNC(=O)N[C@@H]1CC[C@@H](CCNS(=O)(=O)c2cccc(F)c2)O[C@H]1CO | -4 | 5
30 | C[C@@H]1CCCCO[C@H](CN(C)S(C)(=O)=O)[C@@H](C)CN([C@@H](C)CO)C(=O)c2cc(NC(=O)Cc3ccccc3)ccc2O1 | -4 | 2
31 | O=C(C[C@H]1CC[C@H](NS(=O)(=O)c2ccccc2)[C@@H](CO)O1)N1CCN(c2ccccc2)CC1 | 15 | -6
32 | Cc1cccc(S(=O)(=O)N(C)C[C@@H]2OCc3cnnn3CCCC(=O)N([C@H](C)CO)C[C@@H]2C)c1 | 16&6 | 7&2
33 | N#C[C@H]1[C@H](c2ccccc2)[C@@H](CO)N1C(=O)Cc1ccccn1 | 3 | -3
34 | CCS(=O)(=O)N1CC2(C1)CN(S(=O)(=O)c1cccc(OC)c1)[C@H](CO)c1[nH]c3cc(OC)ccc3c12 | 1 | -11
35 | CC(=O)N1CC(=O)N2[C@H](CO)[C@H](c3ccc(-c4cccc(C(=O)N(C)C)c4)cc3)[C@@H]2C1 | 32 | 13
36 | CNC[C@H]1Oc2c(NC(=O)Nc3ccc(OC)cc3)cccc2C(=O)N([C@H](C)CO)C[C@@H]1C | 15 | 26
37 | C[C@H]1CCCCO[C@@H](CN(C)S(=O)(=O)c2cn(C)cn2)[C@@H](C)CN([C@@H](C)CO)C(=O)c2cc(NC(=O)CCC(F)(F)F)ccc2O1 | 22 | 10
38 | C[C@@H]1CCCCO[C@H](CN(C)C(=O)NC2CCCCC2)[C@@H](C)CN([C@H](C)CO)C(=O)c2cc(NS(=O)(=O)c3ccc(Cl)cc3)ccc2O1 | 18 | 5
39 | Cc1noc(C)c1NC(=O)Nc1ccc2c(c1)CC(=O)N([C@H](C)CO)C[C@H](C)[C@@H](CN(C)Cc1ccc(C(=O)Nc3ccccc3N)cc1)O2 | 13 | 10
40 | C[C@@H]1CN([C@@H](C)CO)C(=O)c2cc(NS(=O)(=O)c3cccs3)ccc2O[C@@H]1CN(C)Cc1ccc(C(=O)O)cc1 | 38 | 18
41 | CCS(=O)(=O)Nc1ccc2c(c1)C(=O)N(C)[C@@H]1CC[C@H](CC(=O)NCc3ccccc3F)O[C@@H]1CO2 | 1 | 11
42 | C[C@@H]1CN([C@@H](C)CO)C(=O)c2cccc(NS(=O)(=O)c3cccs3)c2O[C@@H]1CN(C)Cc1ccccc1 | 0 | -2
43 | COc1ccc2c3c(n(C)c2c1)[C@H](CO)N(CC1CC1)CC31CCN(C(=O)CN(C)C)CC1 | 8 | 2
44 | COc1cccc(-c2ccc3c(c2)[C@H]2[C@H](CCN2C(=O)CN2CCOCC2)[C@@H](CO)N3)c1 | 5 | 3
45 | CN(C)C(=O)C[C@@H]1C[C@H]2c3cc(NC(=O)Nc4ccc(C(F)(F)F)cc4)ccc3O[C@H]2[C@@H](CO)O1 | 7 | 1
46 | CCS(=O)(=O)N1CC(=O)N2[C@H](C1)[C@@H](c1ccc(-c3ccc(C)cc3)cc1)[C@@H]2CO | 4 | -22
47 | O=C(C[C@@H]1CC[C@H]2[C@@H](COC[C@H](O)CN2Cc2cccc(C(F)(F)F)c2)O1)NCc1ccc(F)cc1 | -18 | -21
48 | C[C@@H]1CN([C@@H](C)CO)C(=O)c2cccc(N(C)C)c2O[C@H]1CN(C)S(=O)(=O)c1cn(C)cn1 | 0 | -2
49 | OC[C@H]1[C@@H](c2ccc(-c3ccc(F)cc3)cc2)[C@@H]2CN(Cc3ccccn3)CCCCN12 | -6 | -5
50 | COc1ccc2c3c([nH]c2c1)[C@H](CO)N(C(=O)Nc1ccc(F)cc1)CC31CN(S(=O)(=O)c2ccccc2)C1 | 22 | 5
51 | C[C@H](CO)N1C[C@H](C)[C@@H](CN(C)Cc2ccc(Cl)c(Cl)c2)Oc2c(NC(=O)c3cnccn3)cccc2C1=O | ? | ·
52 | C[C@H](CO)N1C[C@H](C)[C@@H](CN(C)Cc2ccccc2C(F)(F)F)OCc2ccccc2-c2ccccc2C1=O | ? | ·
53 | C[C@@H]1CN([C@@H](C)CO)C(=O)c2cc(NS(=O)(=O)c3ccccc3)ccc2O[C@H]1CN(C)C(=O)NC1CCCCC1 | 6 | 2
54 | C[C@H](CO)N1C[C@H](C)[C@H](CN(C)Cc2ccc(Oc3ccccc3)cc2)Oc2ccc(NC(=O)Cn3cnnn3)cc2C1=O | -4 | -6
55 | CCC(=O)Nc1ccc2c(c1)C(=O)N(C)[C@@H]1CC[C@@H](CC(=O)Nc3cccc(OC)c3)O[C@H]1CO2 | 3 | 6
56 | COCC(=O)N(C)C[C@H]1Oc2ncc(Br)cc2C(=O)N([C@H](C)CO)C[C@@H]1C | 6 | 7
57 | C[C@@H]1CCCCO[C@@H](CN(C)C(=O)Nc2cccc3ccccc23)[C@H](C)CN([C@@H](C)CO)C(=O)c2cc(NS(=O)(=O)c3ccccc3)ccc2O1 | 27 | 11
58 | O=C(C1CC1)N1C[C@@H]2[C@H](c3ccccc31)[C@@H](CO)N2C(=O)c1cccc(F)c1 | 6 | 15
59 | O=C(NC1CCCCC1)N[C@H]1C=C[C@@H](CC(=O)N2CCOCC2)O[C@H]1CO | 11 | 6
60 | O=S(=O)(Cc1ccccc1)N1CCCCN2[C@@H](CO)[C@H](c3ccc(-c4cncnc4)cc3)[C@@H]2C1 | 12 | -1
61 | C[C@H](CO)N1C[C@H](C)[C@H](CN(C)S(=O)(=O)c2cccc(F)c2)Oc2ncc(-c3cc4ccccc4o3)cc2C1=O | ? | ·
62 | CCS(=O)(=O)N1[C@H](CO)[C@H](c2ccc(-c3cccc(F)c3)cc2)[C@@H]1C#N | -8 | -16
63 | CN1[C@@H]2c3ccc(-c4ccncc4)c(=O)n3C[C@H]1[C@H](CO)[C@H]2C(=O)NC1CCCCC1 | 7 | 25
64 | CCC(=O)N1CC2(CN(Cc3nccs3)C2)c2c(n(C)c3cc(OC)ccc23)[C@H]1CO | 8 | 4

# Rewritten screen by screen: part of the list above
59: O=C(NC1CCCCC1)N[C@H]1C=C[C@@H](CC(=O)N2CCOCC2)O[C@H]1CO
60: O=S(=O)(Cc1ccccc1)N1CCCCN2[C@@H](CO)[C@H](c3ccc(-c4cncnc4)cc3)[C@@H]2C1
61: C[C@H](CO)N1C[C@H](C)[C@H](CN(C)S(=O)(=O)c2cccc(F)c2)Oc2ncc(-c3cc4ccccc4o3)cc2C1=O

assay / entry	59	60	61
Vaccinia inh	11	12	?
Vaccinia inh Venus	6	-1	·

# Some of the entries above in a different format:
59) O=C(NC1CCCCC1)N[C@H]1C=C[C@@H](CC(=O)N2CCOCC2)O[C@H]1CO
60) O=S(=O)(Cc1ccccc1)N1CCCCN2[C@@H](CO)[C@H](c3ccc(-c4cncnc4)cc3)[C@@H]2C1
61) C[C@H](CO)N1C[C@H](C)[C@H](CN(C)S(=O)(=O)c2cccc(F)c2)Oc2ncc(-c3cc4ccccc4o3)cc2C1=O
62) CCS(=O)(=O)N1[C@H](CO)[C@H](c2ccc(-c3cccc(F)c3)cc2)[C@@H]1C#N

assay / compound	59	60	61	62
Vaccinia inh	11	12	?	-8
Vaccinia inh Venus	6	-1	·	-16

# Compound activity from PubChem.
